# hNpr1 antagonist: human Npr1 receptor antagonism | P16066 | HEK293 hNpr1 GloSensor cGMP, ANP-stimulated luminescence | Potency, µM (doses to about 46.3 µM), for the others: top-dose activity change, negative = inhibition, actives largely listed as inhibitors | 1.6% of 76,000 active; active = well fitted inhibition curve with a large enough effect; inconclusive = small, poorly fitted or top-dose-only effect; inactive = no such curve, though single readings can be large or run the other way;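 further: nearly all actives have a fitted effect of over 60% in size; nearly all hits also lower the signal before the agonist is added; a reference antagonist and vehicle were the controls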
# Target sequence (P16066 whole entry, looked up): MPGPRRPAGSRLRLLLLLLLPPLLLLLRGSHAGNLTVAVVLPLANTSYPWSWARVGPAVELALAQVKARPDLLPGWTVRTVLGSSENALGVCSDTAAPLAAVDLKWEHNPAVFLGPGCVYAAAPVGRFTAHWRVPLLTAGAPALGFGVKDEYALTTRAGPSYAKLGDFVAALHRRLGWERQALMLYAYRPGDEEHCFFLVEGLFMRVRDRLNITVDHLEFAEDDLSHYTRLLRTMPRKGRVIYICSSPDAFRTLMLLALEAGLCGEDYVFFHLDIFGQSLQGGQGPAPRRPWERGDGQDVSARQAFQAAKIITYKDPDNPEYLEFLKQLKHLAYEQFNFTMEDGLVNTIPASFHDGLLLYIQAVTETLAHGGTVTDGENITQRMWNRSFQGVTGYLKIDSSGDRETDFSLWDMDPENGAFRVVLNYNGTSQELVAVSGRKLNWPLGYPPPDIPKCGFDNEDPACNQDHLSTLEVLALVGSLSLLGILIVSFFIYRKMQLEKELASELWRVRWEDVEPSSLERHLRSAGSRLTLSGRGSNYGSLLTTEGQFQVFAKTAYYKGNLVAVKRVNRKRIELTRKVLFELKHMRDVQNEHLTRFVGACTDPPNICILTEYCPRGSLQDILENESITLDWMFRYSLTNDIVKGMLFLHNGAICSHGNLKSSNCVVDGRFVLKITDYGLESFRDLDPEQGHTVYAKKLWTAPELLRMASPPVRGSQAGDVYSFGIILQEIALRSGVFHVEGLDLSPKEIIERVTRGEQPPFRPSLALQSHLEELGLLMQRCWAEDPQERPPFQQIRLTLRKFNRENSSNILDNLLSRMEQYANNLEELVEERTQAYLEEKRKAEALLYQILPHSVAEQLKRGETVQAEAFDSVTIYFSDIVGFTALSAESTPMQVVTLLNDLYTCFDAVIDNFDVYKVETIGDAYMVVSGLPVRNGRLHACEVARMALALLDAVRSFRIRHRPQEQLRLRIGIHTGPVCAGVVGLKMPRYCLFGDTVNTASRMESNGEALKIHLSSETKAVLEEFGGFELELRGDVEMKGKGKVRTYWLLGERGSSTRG
#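 HEK293 cells stably expressing human Npr1 and cGMP GloSensor pGS-40F, loaded 2 h with 2% GloSensor reagent, given compound 30 min at room temperature. Luminescence read before and 20 min after 0.1 nM hNppA.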
# Numbers without * were called inactive; ? = inconclusive; [ ] = another dose, or the depositor's remark. On the % scale 0 is the no-effect control and ±100 the full control effect; potency means the concentration at half of the fitted maximal effect.
SMILES,hNpr1 antagonist
CC1(COc2cccnc2)COc2ccc(C(=O)N3CCN(c4ccccn4)CC3)cc2N1 (configuration not stated),6.31µM*
O=S(=O)(NCc1cccnc1Oc1ccc(F)cc1F)c1cccnc1,2.2%
CCC1=C(C(=O)OC)C(c2cccc(F)c2)N2C(CC(=O)NCCc3cccs3)=CSC2=N1 (configuration not stated),?
COc1ccc(C(=O)N(C)C2CCCN(CCc3ccccc3)C2)cc1OC (configuration not stated),4.3%
COc1cccc(-c2noc(CC3CCN(C(=O)CCCc4ccccc4)CC3)n2)c1,?
CCc1ccc(NC(=O)CN2C(=O)NC3(CCS(=O)(=O)CC3)C2=O)cc1,-3.3%
O=C(c1scc2c1OCCO2)N1Cc2ccccc2C(O)C1 (configuration not stated),-0.5%
C=CCNC(=O)c1csc2nc(-c3cccc(C(F)(F)F)c3)cn12,1.2%
CN(C)CCNC(=O)c1ccc2c(c1)C1(CCN(CC3CC3)C1)CN2Cc1ccccc1 (configuration not stated),-9.0%[70.6 µM]
CC(C)CNC(=O)c1ccc(-c2nnc3ccc(NC(=O)C4CC4)cn23)cc1,1.0%
Cn1cnnc1CC1CCN(C(=O)Cc2ccccc2)CC1,-1.2%
COC(=O)[C@H]1CCCN1C(=O)[C@@H]1[C@@H](NC(=O)Nc2ccc(F)cc2F)CCN1C(=O)c1cccn1C,4.7%
O=C([C@H]1C[C@H](Oc2ccccc2)CN1C(=O)NC1CCCCC1)N1CCOCC1,5.7%
Cc1cc(F)ccc1C(=O)N1C[C@@H](CN2CCCCC2)[C@@H](CO)C1,5.8%
COc1ccccc1-c1cn2c(n1)CO[C@@H](CNC(=O)Nc1ccc(F)cc1)C2,1.7%[70.6 µM]
Cc1ccccc1CN1C[C@H](O)C[C@H]1c1nc(-c2ccncc2)no1,1.8%[70.6 µM]
O=C(O)c1cc(Br)cc(S(=O)(=O)NCC2CCCO2)c1 (configuration not stated),-0.2%
Cc1ccc(C(=O)N2CCC3(CC2)NCCc2c3[nH]c3ccccc23)cn1,1.5%
CCN(CC)Cc1cnc2c(C(=O)Nc3ccc(OC)cc3)cnn2c1,2.7%
Cn1c(Cn2ccnc2)nnc1C1CC(NC(=O)c2ccc(CO)o2)C1 (configuration not stated),3.5%
O=C1CCN(C(=O)[C@@H]2CCCN2C(=O)c2ccoc2)CCCCCCN1,4.7%
Cc1ccc(Cl)cc1-n1nc(-c2c(C)nc3scc(CC(=O)N4CCOCC4)n3c2=O)cc1C,-1.5%
O=C([C@@H]1C[C@H](Oc2ccccc2)CN1C(=O)NC1CCCCC1)N1CCOCC1,2.5%
N#Cc1ccc(C(=O)N2CCC3(CC2)CC(Cc2nc(C4CC4)no2)CCO3)cc1 (configuration not stated),-3.3%
COc1cc(NC(=O)Cn2nc3c(cc2=O)CCCCC3)cc(OC)c1OC,0.4%
CCOC(=O)c1cccc(Nc2nc(-c3ccccc3)no2)c1,-30.5%
CCOc1ccccc1CN1CCC2(CCN(C(=O)C3CC3)CC2)Oc2ccccc21,15.6%
CS(=O)(=O)N1C[C@H]2CCN(C(=O)Cc3ccccc3F)C[C@H]21,2.8%
O=C(C1CCOCC1)N1CCCC1c1nc(C2CCOCC2)no1 (configuration not stated),-0.5%
COc1ccc(OC)c(NC(=O)CN2C(=O)C(c3ccccc3)=NC23CCCC3)c1,0.0%
Cc1nc(N(C)C)ncc1C(=O)N1CCN(c2ccccc2C#N)CC1,2.8%
O=S(=O)(c1ccc(C(F)(F)F)cc1)N1CCCC1c1nncn1Cc1ccncc1 (configuration not stated),-2.6%
O=C(Nc1ccc(F)c(F)c1)C1CCN(C(=O)c2ncn3c2COC(c2ccccc2)C3)CC1 (configuration not stated),?
Cc1ncsc1CCC(=O)N1CCN(CCCOc2ccc(F)cc2)CC1,-25.0%
Cn1ccnc1C(=O)N1CCCC1c1nc(CCOCC2CCCC2)no1 (configuration not stated),3.4%
Cn1nccc1C(=O)N1CC(C(=O)Nc2ccccn2)C2(CCOCC2)C1 (configuration not stated),5.4%
CCc1ccc(CNC(=O)C2(c3ccc(NC(=O)C(C)C)cc3)CCC2)cc1,-5.7%
CCOc1ccccc1NC(=O)Cn1c(=O)n(-c2ccc(F)cc2)c(=O)c2c1cc(C)n2C,-1.4%
CCc1cccc(NC(=O)C2CCN(C(=O)c3nnn4c3COC(c3ccc(OC)cc3)C4)CC2)c1 (configuration not stated),-2.2%
COCc1ccc2c(c1)c(OC(C)(C)C(=O)NCc1ccncc1)nn2CCC(C)C,-0.3%[70.6 µM]
COCC(=O)N[C@@H]1CN(C(=O)c2ccnn2C)CC[C@@H]1c1nc(C)no1,8.0%
Cc1ccc(N2C(=O)N[C@@H]3CCN(C(=O)c4ccccc4)[C@@H]3C2=O)cc1,1.5%[70.6 µM]
CN1CCN(c2ccc(-c3cn(C)c(=O)n4cc(COc5ccnn5C)nc34)cn2)CC1,-10.1%[70.6 µM]
COc1ccc(CN2CCC3(CC2)CNc2ccccc2[S+](=O)([O-])N3)cc1,-22.4%
COc1cccc(Nc2ncc3c(n2)C(C)(C(=O)NC2CCOCC2)CC3)c1 (configuration not stated),-5.0%[70.6 µM]

# Fetched by structure from above (four):
SMILES,hNpr1 antagonist
CCc1cccc(NC(=O)C2CCN(C(=O)c3nnn4c3COC(c3ccc(OC)cc3)C4)CC2)c1 (configuration not stated),-2.2%
CN1CCN(c2ccc(-c3cn(C)c(=O)n4cc(COc5ccnn5C)nc34)cn2)CC1,-10.1%[70.6 µM]
Cn1nccc1C(=O)N1CC(C(=O)Nc2ccccn2)C2(CCOCC2)C1 (configuration not stated),5.4%
Cc1ncsc1CCC(=O)N1CCN(CCCOc2ccc(F)cc2)CC1,-25.0%

# Next part
SMILES,hNpr1 antagonist
COc1ccc(C(C)NC(=O)c2ccc(-c3ccc(N4CCSCC4)nc3)cc2)cc1 (configuration not stated),-22.5%
CC(=O)NC[C@H]1CCN(Cc2ccc(Cl)cc2F)C[C@H]1N(C)C,5.7%
O=C(NCC1(COc2cccnc2)C[C@@H](O)[C@@H](O)C1)c1nc2ccccc2[nH]1 (some centres not stated),3.5%
CN(Cc1ccc(F)cc1)C(=O)c1cccc(Cl)c1,3.0%[70.6 µM]
Cc1ccc(C)c(NC(=O)Cn2nc3n(c2=O)CCCCC3)c1,-0.2%
N#Cc1cccc(C(=O)N2CCC3(CC2)NC(=O)N(Cc2ccccc2Cl)C3=O)c1,-21.2%
O=C(c1ccc2nccn2c1)N1CCN(c2ccc(F)cc2)CC1,3.1%
COc1nccc(N2CCC(CC(=O)NC3CCN(Cc4ccccc4)CC3)CC2)n1,?
O=C(O)C[C@@H]1CCN(C(=O)c2ccc(C(F)(F)F)cc2)C[C@@H]1CCN1CCCCC1,0.5%[70.6 µM]
CCOC(=O)C1=C(C)N=C2SC=C(CC(=O)NCC3CC3)N2C1c1ccccc1OC (configuration not stated),-3.4%
COCc1cc(=O)n(CC(=O)Nc2ccc(OC)c(OC)c2)c(N2CCOCC2)n1,-8.3%
Cc1cnc(-c2cccnc2)n1C1CCCN(CC2CCCCC2)C1 (configuration not stated),-5.1%
O=C(CNC(=O)c1ccccc1)NCc1nnc2ccc(-c3ccccc3)nn12,-0.1%
Cc1cccc(OCC2(CNC3CCN(C)CC3)C[C@@H](O)[C@@H](O)C2)n1 (some centres not stated),6.2%[70.6 µM]
O=C(COc1ccc(F)cc1)NCc1nnc2ccc(-c3ccccc3)nn12,1.1%
Cc1nc2c(c(=O)n1C)CCN(C(=O)NCc1ccco1)CC2,2.5%
COCc1nncn1C1CCN(S(=O)(=O)c2ccc(F)cc2F)CC1,6.9%
COc1ccc2[nH]c3c(c2c1)CCNC31CCN(C(=O)c2ccc(C)s2)CC1,2.5%
CCN1CCN(C(=O)CCn2ccc(=O)[nH]c2=O)C(C)C1=O (configuration not stated),2.1%
O=C(Cn1ccn2nc(-c3ccccc3)c(CO)c2c1=O)Nc1ccc(C(F)(F)F)cc1,-0.4%
COc1ccc(CCC(=O)N2CCC(Cc3nncn3C(C)C)C2)cc1 (configuration not stated),-3.4%
Cc1ccc(NC(=O)N2CCC(CCNC(=O)CC3CCCC3)CC2)cc1F,-1.1%
COc1cccc(CNC(=O)C2(N3C[C@@H](C)O[C@@H](C)C3)Cc3ccccc3C2)c1,6.8%
CC(=O)N1CCC(C2CCN(C(=O)CCCc3nc4ccccc4[nH]3)C2)CC1 (configuration not stated),7.2%
COCCN1C(=O)c2ccccc2C(C(=O)Nc2cc(C)ccn2)C12CCCC2 (configuration not stated),-1.8%
CCOc1cc(=O)n2c(c1C(=O)Nc1cc(Cl)ccc1C)CCCC2,-11.2%
CC1(c2cccnc2)N(CC2CC2)C(=O)OC12CCN(C(=O)c1cccc(O)c1)CC2 (configuration not stated),-1.2%[70.6 µM]
O=C(c1ccn[nH]1)N1CC(F)(F)C[C@H]1c1nc(C2CC2)no1,1.8%
O=C([C@@H]1C[C@H](Oc2cccnc2)CN1C(=O)c1nccc2ccccc12)N1CCOCC1,4.4%
Cc1nn(-c2ccccc2)c(C)c1[C@@H]1C=C[C@@H](NC(=O)c2ccc3c(c2)OCO3)C1,?

# Quoted from the results shown for reference:
SMILES,hNpr1 antagonist
O=C([C@@H]1C[C@H](Oc2cccnc2)CN1C(=O)c1nccc2ccccc12)N1CCOCC1,4.4%
Cc1nn(-c2ccccc2)c(C)c1[C@@H]1C=C[C@@H](NC(=O)c2ccc3c(c2)OCO3)C1,?

# (list continues)
SMILES,hNpr1 antagonist
O=C(O)C1CC2(CCN(C(=O)Cc3ccc4c(c3)OCO4)CC2)CN1 (configuration not stated),-0.2%
O=C1CC(c2ccccc2)N(Cc2cn[nH]c2-c2cccs2)CCCCCN1 (configuration not stated),-0.7%
COCCCNC(=O)N1CCCCCCNC(=O)[C@@H]2CCCC[C@@H]21,0.2%
Cc1cn2nnc(C(=O)NCc3ccncc3)c2c(=O)[nH]1,-6.4%
CC1=C[C@@H](CN2CCN(CCO)CC2)[C@H](C(C)C)C[C@H]1Cc1nnc(Cc2c[nH]c3ccccc23)o1,-16.9%
Cc1nc(C(=O)N2CC[C@H](NS(=O)(=O)c3cn(C)cn3)C[C@H]2C(=O)N[C@H](CC(C)C)C(N)=O)cs1,5.6%
COC(=O)c1ccc2nc(CO[C@H]3CN(C(=O)C4CCOCC4)C[C@H]3F)[nH]c2c1,2.6%[70.6 µM]
CN1Cc2ccc(Nc3ccccc3)nc2C(C)(C(=O)NCCc2ccccn2)C1 (configuration not stated),-10.0%[70.6 µM]
Cc1ccc(S(=O)(=O)N[C@@H]2CCOC[C@H]2OCC(=O)O)cc1,-0.3%
Cc1cc(CN(C)c2ccc(-c3nc(COc4ccccc4)no3)cn2)on1,15.8µM*
COc1cc(CN2C[C@@H](CO)[C@H](NC(=O)c3ccccc3)C2)ccc1F,-11.4%
CCc1cnc(C)nc1N1CCC(=O)N(Cc2ccc(F)cc2)C(C(C)C)C1 (configuration not stated),-4.5%
CC(=O)Nc1ccc(S(=O)(=O)N[C@H]2CO[C@H]3[C@@H]2OC[C@@H]3n2nnnc2Oc2ccc(-n3cncn3)cc2)cc1,2.4%
CN(C)C(=O)c1n[nH]c2c1CN(C(=O)c1ccc(F)cc1F)CC2,-0.5%
COc1ccc(C(=O)N2CCCC(c3nc(-c4cnccn4)no3)CCNC(=O)CC2)cc1 (configuration not stated),3.5%
COc1cccc(-c2ccccc2NC(=O)C2CCN(CC(=O)O)CC2)c1,-2.1%
CC(c1cccs1)N(C)Cc1ccsc1 (configuration not stated),0.0%[70.6 µM]
O=C(Cc1ccc(N(Cc2ccc(F)cc2)C(=O)c2ccco2)cc1)Nc1ccc(F)cc1,-2.7%
COC[C@@H]1[C@H](C(=O)NCCCc2ccccc2)CCC(=O)N1C,-0.8%
CC1(C)C(=O)N(CC2CCOCC2)[C@H]2CN(Cc3cccc(OC(F)(F)F)c3)C[C@H]2[S+]1(=O)[O-],-4.7%
O=C1N(C2CCCCC2)C[C@H]2CN(Cc3cccc(OC(F)(F)F)c3)CCN12,-22.3%[70.6 µM]
Cc1ccc(Cn2c(C3CCN(C(=O)c4cccc(C)c4)CC3)n[nH]c2=O)cc1,3.6%
CCOCCn1cc(C2CCN(S(=O)(=O)c3ccc(CC)cc3)CC2)c2ccccc21,-13.0%
COc1ccc(C2Cn3nnc(C(=O)N4CCC(C(N)=O)CC4)c3CO2)cc1 (configuration not stated),-1.6%
Cc1ccccc1-c1cnc2[nH]cc(CC(=O)Nc3ccccc3)c2c1,?
CCN(CCNC(=O)C1Cn2cccc2C(=O)N1C)Cc1ccccc1 (configuration not stated),0.5%
O=C(Cc1ccccc1F)N1CCC2(CC1)CN(c1ccncn1)CC2CO (configuration not stated),-8.0%
CCOCc1nc(C2CCCN(C(=O)c3ccc(C)c(F)c3)C2)no1 (configuration not stated),19.3%
COc1ccc(CN(C(=O)c2ccco2)c2ccc(CC(=O)NCc3ccc(F)cc3)cc2)cc1,-16.7%
COC1CCC(C(=O)N2CCCn3nc(C)c(-c4ccccc4-c4ccccc4)c32)CC1 (configuration not stated),2.0%[70.6 µM]
Cc1ccc(OCc2nc(C3CN(C(=O)c4ccc5nc[nH]c5c4)C3)no2)cc1,?
Cc1ccc2nc(C3CCN(CC(C)C)CC3)[nH]c(=O)c2c1,?
O=C(Nc1cccc2ccccc12)O[C@@H]1CO[C@H]2[C@@H]1OC[C@@H]2Nc1nccc(-c2cccc(F)c2)n1,-22.3%
Cc1nc(-c2ccc(F)cc2)n(Cc2cccc(C#N)c2)c(=O)c1CCO,-27.2%
CC(C)NC[C@H]1O[C@@H](CO)[C@@H](O)[C@H]1N1CCOCC1,-3.7%[70.6 µM]
CN(C)C(=O)c1nc(-c2cccc(C(F)(F)F)c2)c2cnccn12,10.1%[70.6 µM]
CCOc1ccccc1CN(C)C1CCc2nn(CC3CC3)c(=O)n2CC1 (configuration not stated),5.3%
CN(Cc1cccc(C(F)(F)F)c1)C(=O)C1CCCC1,2.9%[70.6 µM]

# Screens (PubChem)

# The list is partial; the hit share may differ from the screen's.
